Screening results from PubChem.
AF4-AF9 inh: inhibitors of human MLL-AF4/AF9 interaction | P42568 | AlphaScreen, biotin-AF4 peptide binding to FLAG-AF9 | inhibition, % at 10 µM | actives 0.47% (n = 350,000) | AID 651704;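 active means every replicate reaching a set inhibition limit, whatever the replicate mean, cut at about 25% in these data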;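 further: 0% = plate neutral control median and 100% = total signal loss; the record names both 10 and 1 µM as test concentration; the first replicate is given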
Target sequence (P42568 whole entry, looked up): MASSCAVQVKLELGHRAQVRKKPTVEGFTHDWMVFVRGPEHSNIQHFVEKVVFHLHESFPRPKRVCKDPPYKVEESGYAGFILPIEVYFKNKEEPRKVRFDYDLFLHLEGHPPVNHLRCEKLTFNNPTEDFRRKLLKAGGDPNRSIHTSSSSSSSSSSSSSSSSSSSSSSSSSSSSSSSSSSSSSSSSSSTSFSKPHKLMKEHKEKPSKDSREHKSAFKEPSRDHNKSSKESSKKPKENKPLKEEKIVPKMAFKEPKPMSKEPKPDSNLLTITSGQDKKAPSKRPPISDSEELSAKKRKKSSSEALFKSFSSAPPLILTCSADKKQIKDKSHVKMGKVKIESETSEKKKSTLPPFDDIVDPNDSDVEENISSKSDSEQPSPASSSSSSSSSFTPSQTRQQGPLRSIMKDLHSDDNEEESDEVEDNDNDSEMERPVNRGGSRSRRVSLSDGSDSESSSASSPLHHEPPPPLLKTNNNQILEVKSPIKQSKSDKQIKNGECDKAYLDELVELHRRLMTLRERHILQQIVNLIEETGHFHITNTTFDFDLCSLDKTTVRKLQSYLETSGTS
Starred values were filed as active, the others as inactive.

SMILES	AF4-AF9 inh
CO[C@@H]1CN(C)C(=O)c2cc(NS(=O)(=O)c3ccccc3)ccc2OC[C@H](C)N(C)C[C@@H]1C	-1.8
Cc1nc(SCC(=O)Nc2c(C)n(C)n(-c3ccccc3)c2=O)c2cnn(-c3ccccc3)c2n1	-5.9
Cc1cc2c(c(=O)o1)[C@@]1(C(=O)Nc3ccccc31)C1=C(CCCC1=O)O2	-3.0
CC(C)CC#Cc1cnc2c(c1)C(=O)N([C@H](C)CO)C[C@@H](C)[C@H](CN(C)C(=O)c1ccc3c(c1)OCO3)O2	5.8
CN(C)C(=O)c1ccc(-c2ccc([C@@H]3[C@@H](CO)N(C(=O)C4CCCC4)[C@H]3C#N)cc2)cc1	-0.5
COc1cccc(CN2CCCCN3[C@H](CO)[C@H](c4ccc(-c5cccc(C#N)c5)cc4)[C@@H]3C2)c1	12.5
C[C@@H]1CN([C@H](C)CO)C(=O)Cc2cc(N(C)C)ccc2O[C@@H]1CN(C)S(=O)(=O)c1cccs1	2.5
Cc1ccc(S(=O)(=O)N2C[C@H](O)COC[C@@H]3O[C@H](CC(=O)NCc4ccc5c(c4)OCO5)CC[C@H]32)cc1	6.8
C[C@H](CO)N1C[C@H](C)[C@H](CN(C)C(=O)Nc2ccccc2)Oc2c(NC(=O)c3nc4ccccc4s3)cccc2C1=O	4.6
CCN(CC)C(=O)c1ncn2c1C(=O)N[C@H](C)C2	0.3
C[C@H](CO)N1C[C@H](C)[C@@H](CN(C)Cc2ccccc2C(=O)O)Oc2cc(-c3ccccc3)ccc2S1(=O)=O	2.0
C[C@@H]1CN([C@H](C)CO)C(=O)Cc2cc(NC(=O)Cc3cn(C)c4ccccc34)ccc2O[C@H]1CN(C)CC1CC1	6.9
C[C@@H]1CCCCO[C@@H](CN(C)Cc2ccc(C(=O)O)cc2)[C@H](C)CN([C@@H](C)CO)C(=O)c2cc(NS(C)(=O)=O)ccc2O1	-4.2
COc1ccc(-c2oc3c4c2C(=O)OCCOC4CCC3)cc1 (centres undefined)	2.5
O=C(C[C@H]1C=C[C@@H](NC(=O)c2cccnc2)[C@@H](CO)O1)NCc1ccc(Cl)c(Cl)c1	-2.4
COc1cc(Cn2c3ccc(NC(=S)NCc4ccc(C)cc4)cc3c(=O)n2C)ccc1F	1.3
CN1c2ccc(-c3ccc(C#N)cc3)cc2[C@@H]2[C@@H](CCN2C(=O)c2cccc(F)c2)[C@H]1CO	-2.8
COc1cccc2oc(CCc3ccccc3)cc(=O)c12	-0.7
O=C(C[C@H]1CC[C@@H]2[C@H](COC[C@@H](O)CN2S(=O)(=O)c2ccccc2)O1)NCC1CCCCC1	39.3*
NC(=O)CSc1nnc(-c2ccco2)n1-c1ccc(F)cc1	1.7
C[C@H]1CN([C@@H](C)CO)S(=O)(=O)c2ccc(C#Cc3ccncc3)cc2O[C@@H]1CN(C)C	-2.3
Cc1ccc(S(=O)(=O)Nc2cccc3c2O[C@H](CN(C)C)[C@H](C)CN([C@H](C)CO)C3=O)cc1	2.8
C[C@H](CO)N1C[C@H](C)[C@@H](CN(C)S(=O)(=O)c2cccs2)OCCCC[C@H](C)Oc2ccc(NC(=O)Nc3ccccc3)cc2C1=O	0.6
CC(C)C(=O)Nc1ccc2c(c1)C(=O)N(C)[C@@H]1CC[C@@H](CC(=O)NCC3CC3)O[C@@H]1CO2	-3.5
COCC(=O)N1C[C@H](C)[C@@H](OC)CN(C)C(=O)c2ccc(NC(=O)c3cc(C)on3)cc2OC[C@@H]1C	-4.4
Cc1noc(C)c1NC(=O)Nc1ccc2c(c1)C(=O)N([C@H](C)CO)C[C@@H](C)[C@@H](CN(C)Cc1ccncc1)OCCCC[C@H](C)O2	-5.6
C[C@@H]1CCCCO[C@@H](CN(C)C(=O)CCC(F)(F)F)[C@@H](C)CN([C@@H](C)CO)C(=O)c2cc(NS(=O)(=O)c3ccc(F)cc3)ccc2O1	4.4
C[C@@H]1CN([C@H](C)CO)C(=O)c2cccc(NC(=O)c3ccc(-c4nccs4)cc3)c2O[C@H]1CN(C)C(=O)Nc1ccc(C(F)(F)F)cc1	0.4
C[C@@H]1CN([C@@H](C)CO)C(=O)c2cccc(NC(=O)Nc3ccccc3)c2O[C@@H]1CN(C)S(=O)(=O)c1ccc(F)cc1	2.6
CCNC(=O)C1CCCN(C(=O)c2ccc(C)c(F)c2)CC1 (centres undefined)	-0.3
O=C(Nc1ccc(F)cc1)N1C[C@H]2[C@@H](c3ccccc31)[C@@H](CO)N2C(=O)c1ccccn1	-1.4
COCC(=O)N[C@@H]1CC[C@@H](CC(=O)N2CCCCC2)O[C@@H]1CO	-6.5
CCCN1[C@H](C(=O)OC)[C@@H](CO)[C@@H]2Cn3c(ccc(C4=CCCCC4)c3=O)[C@@H]21	0.1
C[C@@H]1CN([C@H](C)CO)S(=O)(=O)c2ccc(-c3cncnc3)cc2O[C@@H]1CN(C)C(=O)C1CCCCC1	2.8
CC(=O)N[C@@H]1C[C@@H]2O[C@@H](CO)CC[C@@H]2O[C@@H]1CCc1ccc(-c2ccc(F)cc2)cc1	-1.8
CCC(=O)N(C)C[C@@H]1Oc2cc(C#CCC(C)C)ccc2S(=O)(=O)N([C@@H](C)CO)C[C@@H]1C	0.1
NCCCCCNC(=O)[C@@H]1C[C@@H]2C(=O)N[C@@H](Cc3ccccc3)C(=O)N2[C@@H]1c1cccc(OCCO)c1	3.6
Cc1ccc(S(=O)(=O)Nc2ccc3c(c2)C(=O)N([C@@H](C)CO)C[C@@H](C)[C@@H](CN(C)C(=O)Nc2ccc(F)cc2)O3)cc1	4.8
CCC(=O)Nc1ccc2c(c1)C(=O)N(C)C[C@@H](OC)[C@@H](C)CN(Cc1ccccc1C(=O)O)[C@H](C)CO2	-19.5
C[C@@H]1CN([C@H](C)CO)C(=O)Cc2cc(NC(=O)Nc3ccc(F)cc3)ccc2O[C@H]1CN(C)C	0.3
CC=Cc1ccc2n(c1=O)C[C@H]1[C@H](CO)[C@@H](C(=O)NC3CCCC3)N(CCC)[C@@H]21 (mixture of isomers)	-0.1
O=C(c1cnccn1)N1C[C@H]2[C@@H](c3ccccc31)[C@@H](CO)N2Cc1ccccc1Cl	-1.7
C[C@H](CO)N1C[C@H](C)[C@H](CN(C)Cc2ccc3c(c2)OCO3)Oc2ccc(NS(=O)(=O)c3cccs3)cc2CC1=O	1.7
C[C@@H]1CN([C@@H](C)CO)C(=O)c2cc(-c3cccc(F)c3)cnc2O[C@@H]1CN(C)Cc1cccnc1	-3.8
C[C@@H]1CN([C@@H](C)CO)C(=O)Cc2cc(NC(=O)C3CC3)ccc2O[C@H]1CN(C)C	-1.9
CCCS(=O)(=O)NC(=O)C1(C)CCN(C(=O)c2cccnc2Oc2ccccc2)C1 (centres undefined)	-1.7
COc1ccc(NC(=O)N(C)C[C@@H]2Oc3ccc(NC(=O)CCN4CCOCC4)cc3C(=O)N([C@@H](C)CO)C[C@@H]2C)cc1	-3.5
COc1ccc(NC(=O)Nc2ccc3c(c2)[C@@H]2C[C@H](CC(=O)N4CCCCC4)O[C@H](CO)[C@@H]2O3)cc1	3.1
C[C@H](CO)N1C[C@H](C)[C@@H](CN(C)C(=O)Nc2cccc3ccccc23)Oc2ccc(N(C)C)cc2CC1=O	10.9
CCC(=O)N1CC2(C1)[C@H](c1ccccc1)[C@H](CO)N2CCC(F)(F)F	-2.3
COc1cccc(S(=O)(=O)N[C@@H]2CC[C@H](CCn3cc(-c4ccc(F)cc4)nn3)O[C@@H]2CO)c1	0.8
COCC(=O)N1[C@@H](C#N)[C@H](c2ccc(C#CCC3CCCC3)cc2)[C@@H]1CO	3.8
COc1ccc(CN(C)C[C@H]2Oc3ccc(NS(=O)(=O)c4cccs4)cc3C(=O)N([C@@H](C)CO)C[C@H]2C)cc1	0.4
CCC1(c2ccc(F)cc2)NC(=O)N(CC(=O)Nc2cc(C)on2)C1=O (centres undefined)	-1.4
CO[C@@H]1CN(C)C(=O)c2cc(NC(C)=O)ccc2OC[C@@H](C)N(C(=O)c2ccncc2)C[C@H]1C	1.4
O=C(NC1CCCC1)N1CCCCN2[C@H](C1)[C@H](c1ccc(-c3ccncc3)cc1)[C@@H]2CO	-6.7
CNC[C@H]1Oc2ccc(NC(=O)Nc3c(C)noc3C)cc2CC(=O)N([C@H](C)CO)C[C@@H]1C	-14.0
C[C@@H]1CN([C@H](C)CO)C(=O)c2cc(NC(=O)Nc3ccc4c(c3)OCO4)ccc2O[C@H]1CN(C)Cc1ccccc1	1.7
COc1ccc(-c2ccc([C@@H]3[C@@H](C#N)N(C(=O)CN(C)C)[C@@H]3CO)cc2)cc1	2.2
CS(=O)(=O)Nc1ccc2c(c1)[C@@H]1C[C@@H](CC(=O)O)O[C@@H](CO)[C@@H]1O2	-2.4

(list continues)
SMILES	AF4-AF9 inh
C[C@@H]1CN([C@H](C)CO)C(=O)Cc2cc(NS(C)(=O)=O)ccc2O[C@H]1CN(C)CC1CC1	-1.1
O=S1(=O)C=C[C@@H](COCc2ccccc2)N1Cc1ccc(Br)cc1	0.0
CCCCCCCCCCCCCCCC(O)C[N+](C)(C)CCO (centres undefined)	3.3
C[C@H]1CN([C@@H](C)CO)C(=O)Cc2cc(NS(=O)(=O)c3cccs3)ccc2O[C@@H]1CN(C)Cc1ccc2c(c1)OCO2	1.2
COc1ccccc1C(=O)Nc1ccc2c(c1)OC[C@H](C)NC[C@H](C)[C@H](OC)CN(C)C2=O	-1.2
C[C@H]1CN([C@@H](C)CO)S(=O)(=O)c2ccc(Br)cc2O[C@@H]1CN(C)CC1CCOCC1	2.4
CCOc1ccc(OCCC(=O)OCC(=O)Nc2cccc(S(=O)(=O)N3CCCCC3)c2)cc1	-13.3
Cc1ccc(-n2nnnc2CNC(=O)C(=O)c2c[nH]c3ccccc23)cc1C	-1.2
COc1ccc(C2=Nc3ccccc3NC(=O)C2N(C(=O)c2cc3ccccc3[nH]2)c2ccccc2)cc1 (centres undefined)	0.9
CC(C)NC(=O)N[C@H]1CC[C@H](CCn2cc(-c3ccccc3)nn2)O[C@@H]1CO	-1.0
CC(=O)NCC1(c2ccccc2)CCN(CC2COc3ccccc3O2)CC1 (centres undefined)	-4.6
CCCN1C[C@H](C)[C@H](OC)CN(C)C(=O)c2cc(NC(=O)c3cnccn3)ccc2OC[C@@H]1C	-2.9
Cc1ccc(S(=O)(=O)N(C)C[C@H]2Oc3ccc(NS(=O)(=O)c4cccs4)cc3CC(=O)N([C@H](C)CO)C[C@H]2C)cc1	-0.8
O=C(NCc1cccnc1)c1cc(C2CCCN(C(=O)c3ccc4c(c3)CCO4)C2)on1 (centres undefined)	0.0
COc1ccccc1-c1cn(CC[C@@H]2CC[C@H](NC(=O)Cc3ccccn3)[C@H](CO)O2)nn1	-1.0

Two records picked at random from the list so far, as already listed:
SMILES	AF4-AF9 inh
CC(C)NC(=O)N[C@H]1CC[C@H](CCn2cc(-c3ccccc3)nn2)O[C@@H]1CO	-1.0
CCCCCCCCCCCCCCCC(O)C[N+](C)(C)CCO (centres undefined)	3.3

Additional entries:
SMILES	AF4-AF9 inh
CCC(=O)N(C)C[C@H]1Oc2cc(C#Cc3cccnc3)ccc2S(=O)(=O)N([C@@H](C)CO)C[C@H]1C	-3.4
C/C=C/c1cnc2c(c1)C(=O)N([C@@H](C)CO)C[C@@H](C)[C@H](CN(C)C(=O)Cc1ccccn1)O2	0.1
COCC(=O)N(C)C[C@@H]1Oc2ncc(-c3ccccc3OC)cc2C(=O)N([C@@H](C)CO)C[C@@H]1C	-27.2
Cc1cccc(S(=O)(=O)N2CC[C@@H]3[C@H](CO)Nc4ccc(C#Cc5ccccc5F)cc4[C@@H]32)c1	-0.2
CCCC#Cc1cnc2c(c1)C(=O)N([C@H](C)CO)C[C@H](C)[C@H](CN(C)C(=O)Nc1cccc(F)c1)O2	2.8
Cc1noc(C)c1S(=O)(=O)N(C)C[C@@H]1OCCCC[C@@H](C)Oc2ccc(NC(=O)C3CCCCC3)cc2C(=O)N([C@H](C)CO)C[C@@H]1C	-0.3
CC(=O)Nc1ccc2c(c1)C(=O)N(C)[C@@H]1CC[C@@H](CC(=O)NCC3CC3)O[C@H]1CO2	-2.9
CC(C)NC(=O)c1csc([C@@H]2O[C@H](CO)[C@H](O)[C@H](O)[C@H]2O)n1	-8.2
CC(=O)N(C)C[C@@H]1Oc2cc(C#Cc3ccccc3F)ccc2S(=O)(=O)N([C@@H](C)CO)C[C@@H]1C	0.6
CC(C)NC(=O)Nc1ccc2c(c1)C(=O)N([C@H](C)CO)C[C@H](C)[C@H](CN(C)C(=O)NC(C)C)OCCCC[C@H](C)O2	-5.3
CO[C@@H](CN(C)C(=O)C1CCOCC1)[C@@H](C)CN(C(=O)Nc1ccc(F)cc1)[C@H](C)CO	0.3
C[C@@H]1CN([C@@H](C)CO)C(=O)c2cc(NC(=O)Nc3ccc(F)cc3)ccc2O[C@@H]1CN(C)CC1CCCCC1	0.7

Structures from the list above containing a thiophene ring, fused or not (6):
SMILES	AF4-AF9 inh
C[C@@H]1CN([C@H](C)CO)C(=O)Cc2cc(N(C)C)ccc2O[C@@H]1CN(C)S(=O)(=O)c1cccs1	2.5
C[C@H](CO)N1C[C@H](C)[C@@H](CN(C)S(=O)(=O)c2cccs2)OCCCC[C@H](C)Oc2ccc(NC(=O)Nc3ccccc3)cc2C1=O	0.6
C[C@H](CO)N1C[C@H](C)[C@H](CN(C)Cc2ccc3c(c2)OCO3)Oc2ccc(NS(=O)(=O)c3cccs3)cc2CC1=O	1.7
COc1ccc(CN(C)C[C@H]2Oc3ccc(NS(=O)(=O)c4cccs4)cc3C(=O)N([C@@H](C)CO)C[C@H]2C)cc1	0.4
C[C@H]1CN([C@@H](C)CO)C(=O)Cc2cc(NS(=O)(=O)c3cccs3)ccc2O[C@@H]1CN(C)Cc1ccc2c(c1)OCO2	1.2
Cc1ccc(S(=O)(=O)N(C)C[C@H]2Oc3ccc(NS(=O)(=O)c4cccs4)cc3CC(=O)N([C@H](C)CO)C[C@H]2C)cc1	-0.8

Only part of the results is shown. The share of hits here may be higher or lower than overall.
